# Tg IFNy HTS: T. gondii growth inhibition with IFN-gamma, primary screen, cell-based | Toxoplasma gondii growth in IFN-gamma-treated host cells; stronger effect = lower value; reference of the scale not given here | activity change, negative = inhibition, %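 (about 20 µM by stock and volumes)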 | hit rate 3.8% among 69,000 | AID 1259416, 2018;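 active means below -70%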;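 further: host cells are HeLa cells infected with Toxoplasma gondii; parasite growth read as luciferase light; one replicate is shown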
# The depositor's hits bear a star. Some of the compounds tested, so the mix of outcomes need not match the whole.
# The first 7 compounds, ahead of the listing:
SMILES,Tg IFNy HTS
COc1ccccc1-c1nc(C)c(-c2ccc(SCc3ccc(C)cc3)nn2)s1,-4.5
CN(C)c1ncnc2c1CCN(C(=O)c1ccc3ncccc3c1)CC2,1.6
COc1ccccc1C(CN)N1CCOCC1 (stereo not given),-1.3
C=CCCC(C)(O)C#CCN1CCCC1 (stereo not given),29.8
Cc1ccc(C)n1-c1ncccc1Oc1cnn(Cc2ccccc2)c(=O)c1Cl,-9.9
C=CCN(Cc1ccc(F)cc1)C(=O)c1ccc(CN2CCCC2)o1,-11.0
COc1cc2c(c(OC)c1)C(c1c(C)nn(C(C)(C)C)c1C)CC(=O)N2 (stereo not given),-23.1

# The listing, from the start:
SMILES,Tg IFNy HTS
COc1ccccc1-c1nc(C)c(-c2ccc(SCc3ccc(C)cc3)nn2)s1,-4.5
CN(C)c1ncnc2c1CCN(C(=O)c1ccc3ncccc3c1)CC2,1.6
COc1ccccc1C(CN)N1CCOCC1 (stereo not given),-1.3
C=CCCC(C)(O)C#CCN1CCCC1 (stereo not given),29.8
Cc1ccc(C)n1-c1ncccc1Oc1cnn(Cc2ccccc2)c(=O)c1Cl,-9.9
C=CCN(Cc1ccc(F)cc1)C(=O)c1ccc(CN2CCCC2)o1,-11.0
COc1cc2c(c(OC)c1)C(c1c(C)nn(C(C)(C)C)c1C)CC(=O)N2 (stereo not given),-23.1
COc1ccc(-c2nc(CN(c3ccc(C)cc3)S(=O)(=O)c3cccs3)c(C)o2)cc1,-34.3
O=C(NCC1(c2ccccc2F)CCOCC1)[C@@H]1C[C@@H]2C=C[C@H]1C2,-6.1
CC(O)c1ccc(-c2cccc(-n3cccn3)c2)cc1 (stereo not given),150.3
CCCCc1c(C)[nH]c2ccccc2c1=O,-99.1*
O=C(CCSc1ccccc1)Nc1ccc(Cl)c(Cl)c1,-36.5
O=C1c2ccccc2S(=O)(=O)N1c1ccccc1F,-14.8
O=C(CC1CC1)N[C@H]1CN(C(=O)c2ccoc2)C[C@@H]2CCCO[C@H]21,-47.0
CCn1c(=O)n(CC)c2cc(C(=O)N3CCN(Cc4ccccn4)CC3)ccc21,-21.3
COc1c(F)cccc1C(=O)N(C)Cc1ccc(C)o1,-1.7
COc1ccccc1C1CCCN1S(=O)(=O)NCc1ccccc1 (stereo not given),-17.8
CCCc1c(C(=O)N(Cc2ccccc2)Cc2cccs2)cnn1-c1ccccc1,-64.2
COc1cccc(C2CC(=O)C3=C(C2)Nc2ccccc2N(C(=O)CCC(=O)O)C3c2ccc(F)cc2)c1 (stereo not given),14.0
Clc1ccc2c(c1)-c1c(cnc3ccc(Cl)cc13)CO2,-47.2
COc1ccc(NC(=O)CS(=O)CC(=O)Nc2ccc(F)cc2F)cc1 (stereo not given),-13.5
CC(=O)N1CCCn2cnc(CNc3ncccn3)c2C1,13.5
CCN(CC)c1ncnc2c1nnn2Cc1ccccc1,2.8
C[C@H](CO)N1C[C@H](C)[C@@H](CN(C)S(C)(=O)=O)Oc2cc(-c3ccncc3)ccc2S1(=O)=O,116.8
COc1ccc(-c2nc(Cn3c(=O)c4cccnc4n(-c4ccccc4OC)c3=O)c(C)o2)cc1,18.4
Cc1cccc(C(=O)N2CCC3(CCN3Cc3cnn(C)c3)C2)c1 (stereo not given),8.0
CCCNC(=O)C[C@@H]1CC[C@H]2[C@@H](COC[C@H](O)CN2Cc2ccncc2)O1,-26.4
COc1cc(C(=O)Nc2ccc(NC(=O)C(C)(C)C)c(OC)c2)ccn1,-12.9
CCN(CCn1cccn1)Cc1cc(F)ccc1O,-10.9
O=C(CCC1N=C2c3ccccc3N=C(SCc3ccccc3F)N2C1=O)NCc1ccc2c(c1)OCO2 (stereo not given),-5.2
Cc1ccc(C(=O)N2CC[C@@H]3[C@H]2CCN3S(C)(=O)=O)cn1,-0.4
C=Cc1cccc(CN2CCCC(CNC(=O)C3(N)CCC3)C2)c1 (stereo not given),6.9
CCC(C(=O)NCC1=CCN(C)CC1)c1ccccc1 (stereo not given),5.8
Cc1ccc(NS(=O)(=O)c2cc(F)c(Br)cc2F)cc1,0.5
CN1C(=O)c2cc(NS(=O)(=O)c3cccc(F)c3)ccc2OC[C@@H]2O[C@@H](CC(=O)N3CCc4ccccc4C3)CC[C@@H]21,-16.1
COCCCNC(=O)c1nc(-c2ccc(Cl)cc2)n2c1CCCCC2,-49.6
COc1ccc(C(N)=O)cc1-c1ccc(S(C)(=O)=O)cc1,4.6
CCc1cnc(N2CC[C@@H]3[C@H]2CCN3c2nncs2)nc1,-5.4
Cc1ccc(-c2cc(C(=O)NCc3ccccc3)c3ccccc3n2)cc1,22.1
COCCOC1CCC2(CCN(C(=O)c3ccc[nH]3)CC2)c2ccccc21 (stereo not given),-29.8
CC(=O)N1CCc2nc(C)nc(NCC[C@@H]3C[C@@H]4C=C[C@H]3C4)c2CC1,4.5
Cc1oc(-c2ccc(NC(=O)Cc3ccccc3F)cc2)nc1Cn1cccn1,-61.0
c1cnn(Cc2ccc(CN3CCC4(CCOCC4)CC3)cc2)c1,-7.2
CC(C)N(C(=O)N1CCc2c(ncnc2N2CCOCC2)C1)C(C)C,-37.6
NC(=O)c1cnc2n1CCN(C(=O)C/C=C/c1ccccc1)C2,1.4
CCOc1ccc(C(=O)C2CCN(Cc3nnnn3C3CCCCC3)CC2)cc1,-4.1
Cc1ccc(C(C)CCN2CC3CCCN3C[C@H]2C)o1 (stereo not given in full),30.3
Nc1nc2c(c(Nc3ccccc3)n1)C(=O)CCC2,12.7
Cc1cccc(OC2CCN(C(=O)Cc3cccc4cccnc34)CC2)c1,-7.5
C=CCOCc1cncc2c1CCN(C(=O)c1cc(C)on1)C2,12.4
COc1ccc(-c2nc(C)c(CCNS(=O)(=O)c3ccc4ccccc4c3)s2)cc1,72.9
Clc1cc(Cl)c(OCC#CI)cc1Cl,12.4
COc1ccc(-c2nc(C)c(CCNC(=O)C(=O)Nc3cc(C)cc(C)c3)s2)cc1OC,34.6
COc1ccc(-c2ccc(C(=O)N3CCCC(c4ccccc4)CC3)cn2)cc1 (stereo not given),-27.5
Cc1ccc(CS(=O)(=O)N2CCc3c(CN4CCCC4)nn(C(C)C)c3C2)cc1,10.1
COC(=O)c1cn(CC(=O)N2CCc3ccccc3C2)c2ccccc12,-10.0
COc1cccc(CN2CC3(CCN(C)CC3)c3c([nH]c4cc(OC)ccc34)[C@H]2CO)c1,0.8
Cc1cc(-n2cnnc2COc2ccccc2Cl)n(C)n1,4.1
COc1ccc2c(c1)C1=C(CC2)C(c2ccc(F)cc2)NC(=S)N1 (stereo not given),29.1
OCC1(CO)CCCC(CO)(CO)C1O,-8.1

# Additional structures
SMILES,Tg IFNy HTS
COc1ccc(OC)c(NC(=O)COc2nc(C)nc3ccccc23)c1,15.3
CCOc1ncnc2c1CCN(C(=O)NCc1ccccc1)CC2,-5.2
Cc1ccc2nc(-c3ccc(-c4ccccc4)s3)cn2c1,79.8
O=C(c1ccccc1NCc1ccccn1)N1CCC2(CCNCC2)CC1,1.5
O=c1oc2ccc(Cl)cc2cc1-c1nc2c(s1)CCCC2,105.6
O=C(c1cc(-n2cnnn2)ccc1O)N1CCO[C@@H]2CCCC[C@H]21,-5.2
Cc1noc(-c2cc(=O)n(CC(=O)NC3CCCCC3)c3ccccc23)n1,45.4
Cc1ccc(C)c(CNC(=O)C(C)(C)NC(=O)c2cccs2)c1,-2.7
COc1cccc(S(=O)(=O)Nc2ccc(-c3nc(-c4ccc(C)cc4C)co3)cc2)c1,-53.3
COc1ccc(Cl)cc1NC(=O)Cn1c(=O)cc(C(=O)N2CCOCC2)c2ccccc21,8.2
Cc1ccc(NC(=O)c2ccc3ccc(N4CCN(C(=O)CN(C)C)CC4)n3c2)nc1,6.8
C[C@@H]1CCCCO[C@@H](CN(C)C(=O)CCC(F)(F)F)[C@@H](C)CN([C@H](C)CO)C(=O)c2cc(NC(=O)C3CCCCC3)ccc2O1,23.3
COCC(=O)N1C[C@@H](C)[C@@H](OC)CN(C)C(=O)c2ccc(NC(=O)Nc3cccc(F)c3)cc2OC[C@@H]1C,54.6
Fc1ccccc1Cn1c(C2CCOCC2)cc2cccnc21,-28.1
Cc1cccc(Nc2nc(C(=O)Nc3cccc4c3CCCC4)nc3ccccc23)c1,-67.4
O=C(NCc1cccnc1)c1ccccc1NS(=O)(=O)c1cccs1,27.9
COC(=O)c1c(NC2CCCCC2)c2cccc(Cl)c2[nH]c1=O,-63.3
Cc1c[nH]c2ccccc12,17.4
Cc1cccc(CN2CCO[C@H]3CN(C(=O)N(C)C)CC[C@@H]3C2=O)c1,39.6
COc1cc(/C=C/c2nc(-c3ccccc3O)n[nH]2)cc(OC)c1OC,39.1
O=C1CN(C(=O)CN2CCCC(Cc3nc4ccccc4[nH]3)C2)c2ccccc2N1 (stereo not given),26.0
CO[C@@H]1CC[C@H]2CCOc3ccc(C#N)cc3C(=O)N(C)[C@@H](C)C(=O)N(C)C[C@H]1O2,3.7
Cc1cc(C)c2c(N3CCCCC3)nc(C(=O)N3CCC(N4CCCCC4)CC3)nc2n1,116.0
CC12CCC(C(=O)Nc3ccccc3Br)(C/C1=N\O)C2(C)C (stereo not given),-11.6

# Four compounds from above, sorted by number of heavy atoms, falling.
SMILES,Tg IFNy HTS
COCC(=O)N1C[C@@H](C)[C@@H](OC)CN(C)C(=O)c2ccc(NC(=O)Nc3cccc(F)c3)cc2OC[C@@H]1C,54.6
Cc1cc(C)c2c(N3CCCCC3)nc(C(=O)N3CCC(N4CCCCC4)CC3)nc2n1,116.0
CO[C@@H]1CC[C@H]2CCOc3ccc(C#N)cc3C(=O)N(C)[C@@H](C)C(=O)N(C)C[C@H]1O2,3.7
O=C(NCc1cccnc1)c1ccccc1NS(=O)(=O)c1cccs1,27.9

# Some of the entries so far, as tab-separated lines.
mol	Tg IFNy HTS
CO[C@@H]1CC[C@H]2CCOc3ccc(C#N)cc3C(=O)N(C)[C@@H](C)C(=O)N(C)C[C@H]1O2	3.7
Cc1cc(C)c2c(N3CCCCC3)nc(C(=O)N3CCC(N4CCCCC4)CC3)nc2n1	116.0

# Further records follow.
SMILES,Tg IFNy HTS
O=C(C(c1ccc(Cl)cc1)N1CCOCC1)N1CCN(Cc2ccccn2)CC1 (stereo not given),13.4
O=C(CSCc1ccccc1Cl)N1CC[C@H](O)[C@@H](O)C1,-46.9
COCCNc1ccnc(C2COCCN2CC2CCOCC2)n1 (stereo not given),-0.1
COCCN(Cc1cnn(C)c1)C(=O)c1ccc(Cl)s1,34.3
Cc1noc(C)c1NC(=O)N1C[C@@H](O)COC[C@@H]2O[C@H](CC(=O)N[C@H]3CCN(Cc4ccccc4)C3)CC[C@H]21,10.6
CCCn1cnnc1CNCC(=O)Nc1cnccn1,5.2
CS(=O)(=O)Oc1ccc2c(c1)O/C(=C\C=C\c1ccccc1)C2=O,17.2
CC(C)(O)c1cn(C2CCN(C(=O)CCc3ccncc3)CC2)nn1,5.1
COc1ccc(CNc2nccc(N3CCC(O)CC3)n2)c(OC)c1,-19.1
Cc1ccc(CNC(=O)Nc2ccc(-c3nc(-c4ccc(C)cc4)co3)cc2)cc1,52.8
COc1ccc(C[C@H]2CN(C(=O)c3ccnn3C)CC[C@H]2OC)cc1,-39.8
COc1ccc(-c2ccccc2-c2nnc(C)s2)cn1,156.6
Cc1cc(CC(=O)N2CCCC(OCc3ccccn3)C2)on1 (stereo not given),-2.5
O=C(C1CCOCC1)N1CCC2(CC1)CCN(c1ncccn1)C2,4.3
CN(Cc1nc2ccccc2n1C)C(=O)[C@H]1Cc2ccccc2CN1,37.6
CC(=O)N1CC2(CCN(C(=O)C(C)C)CC2)C2(CCN(C)C2=O)C1 (stereo not given),8.8
CCCCc1nc(Cl)c(CN2Cc3ccccc3OC(CN(C)C)C2)[nH]1 (stereo not given),23.3
CCc1ccc2c(c1)cc(S(=O)(=O)c1ccccc1)c(=O)n2CC(=O)NCc1ccc(F)cc1,-46.5
CN(C)Cc1c(C(=O)NCCOc2ccc(C(=O)NO)cc2)oc2ccccc12,-74.4*
COCc1cn(CC[C@H]2CC[C@@H](NC(=O)Nc3c(C)noc3C)[C@@H](CO)O2)nn1,54.1
CCc1c(C)nc(C2CCCN(Cc3ccc(N4CCOCC4)c(F)c3)C2)[nH]c1=O (stereo not given),4.8
CCOC(=O)C(Cc1ccccc1)C(=O)Nc1ccccc1C (stereo not given),97.8
CCC(C)(C)N=C(NC#N)Nc1cccnc1,19.7
CC(=O)Nc1nc(-c2cccnc2)cs1,-63.4
CO[C@@H]1CN(C)C(=O)c2cc(NS(=O)(=O)c3ccc(Cl)cc3)ccc2OC[C@H](C)N(C(=O)NC(C)C)C[C@H]1C,-8.2
COCCN1CCC2(CC1)COCCN2Cc1csc(C)n1,2.1
O=C(CCC1C(=O)Nc2ccccc21)Nc1cccc(N2CCCCS2(=O)=O)c1 (stereo not given),2.9
Cc1cc(C)c(S(=O)(=O)NCCc2csc(-c3ccc(Cl)cc3)n2)c(C)c1,-9.2
COC(=O)CCn1cc(CN2CCCC2c2ccccn2)cn1 (stereo not given),14.2
CO[C@H]1CN(C)C(=O)c2cc(NS(=O)(=O)CC(F)(F)F)ccc2OC[C@@H](C)NC[C@@H]1C,405.9
CC(=O)c1cnc2c(C(=O)NCc3cc(C)cc4c(C)c(C)[nH]c34)cnn2c1C,10.9
Cc1c(C(=O)CN2CCN(c3ccc(C(F)(F)F)cn3)CC2)sc2ccccc12,4.3
COCc1cncc2c1CCN(C(=O)C1CCOCC1)C2,8.4
CC1=C(C(=O)NCCCN(C)C2CCCCC2)C2(CCN(S(C)(=O)=O)CC2)OC1=O,4.9
Cc1nnsc1CN1CCC(=O)N(Cc2ccc(F)cc2)C(C(C)C)C1 (stereo not given),-12.7
CC(C)CN1C[C@@H]2CN(C(=O)c3ccnn3C)C[C@H]2C1=O,-6.2
CCc1cc(=O)oc2cc(OCC=C(C)C)ccc12,21.3
CC(NC(=O)Cc1nc2ccccc2[nH]1)c1ccc(O)c(F)c1 (stereo not given),-4.3
COc1cc2nccc(Oc3ccc(NC(=O)Nc4ccc(F)cc4F)c(F)c3)c2cc1OC,-75.0*
CO[C@@H]1CC[C@H]2CCOc3c(C#N)cccc3C(=O)N(C)CC3(CCCCC3)CC(=O)N(C)C[C@H]1O2,-55.2

# From PubChem BioAssay
